Env fusion inh – inhibitors of HIV-1 Env-driven cell-cell fusion, primary screen, HeLa-JRFL effector, CEM21 target cells, luciferase; actives 1.1% (n = 360,000); inhibition, % at 12.3 µM; AID 651610, 2012;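 active = mean replicate inhibition score of at least 50 and every replicate individually at or above 50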;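 note: 0% = plate neutral controls and 100% = maraviroc near 300 nM; one replicate is shown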
Rce1 inh – yeast Rce1p protease inhibitors, primary screen, biochemical, fluorescence, cell-free homogeneous; AID 2563, 2010; yeast membranes, quenched prenylated peptide cleavage fluorescence; actives 0.27% (n = 290,000); calls only; CAAX prenyl protease 2 (Saccharomyces cerevisiae (strain ATCC 204508 / S288c)), Q03530;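 active = fall in fluorescence gain of 50% or more versus controls, with final raw signal at or below 3038400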;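 note: plate controls were neutral control wells for no effect and wells lacking membranes for full effect; tested at 10 µM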
Target sequence (Q03530 whole entry, looked up): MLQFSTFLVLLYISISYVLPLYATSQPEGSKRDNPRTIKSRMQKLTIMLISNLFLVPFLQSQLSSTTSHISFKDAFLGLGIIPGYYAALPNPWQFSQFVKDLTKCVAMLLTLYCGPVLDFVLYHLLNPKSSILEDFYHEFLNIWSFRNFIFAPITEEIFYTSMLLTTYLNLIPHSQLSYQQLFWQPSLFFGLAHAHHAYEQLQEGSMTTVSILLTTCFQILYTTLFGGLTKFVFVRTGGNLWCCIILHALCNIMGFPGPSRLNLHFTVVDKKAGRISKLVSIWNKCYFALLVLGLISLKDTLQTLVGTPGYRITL
Yeast UUG start – modulators of yeast start codon fidelity, primary screen, whole organism, S. cerevisiae, single point, plate reader; S. cerevisiae UUG-firefly luciferase reporter, luminescence/redox ratio; activity score, % at 18.7 µM; actives 0.13% (n = 350,000); AID 602363, 2012;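 active = replicate mean at a twofold rise or more, about +100% in these data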;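 note: firefly luciferase made from a UUG start codon reports start codon fidelity; reporter light over untreated wells divided by growth signal over untreated wells; some hits fall short of that in this replicate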
MT1-MMP act inh – blockers of MT1-MMP proenzyme processing, primary screen, HT1080 RFP-PRO-GFP cells, GFP/RFP fluorescence | actives 0.061% (n = 360,000) | GFP/RFP ratio change, % at 20 µM | GFP/RFP ratio fluorescence, overnight; percent of plate control window, DMSO zero | Matrix metalloproteinase-14 (Homo sapiens), P50281;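 active = GFP/RFP ratio change of at least 30% with cell ATP level not reduced by more than half and red fluorescence within 50% of control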; note: strong numbers were not always called active
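Compound: 20 µM single dose, 1% DMSO / System: HT1080 RFP-PRO-GFP cells / Controls: DMSO and RFP-L50D-GFP cell wells / Read-out basis: GFP/RFP fluorescence ratio / Schedule: overnight compound exposure at 37 °C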
CSC inhib – cancer stem cell viability inhibitors, primary screen, luminescence. actives 1.1% (n = 300,000). cancer stem cell-like cells viability. inhibition, % at 7.5 µM. AID 2717, 2010;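 active = mean at 75% or more and at least half the replicates too; tested in HMLE shEcad cells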;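 note: 0% = median of negative and 100% = median of positive control wells; the first replicate is given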
eIF4H inh – human eIF4H binding inhibitors, primary screen, translation initiation inhibitor project, biochemical, uHTS, fluorescence polarization; eIF4H fluorescence polarization binding assay; AID 2012, 2009; Eukaryotic translation initiation factor 4H (Homo sapiens), Q15056; inhibition, % at 35 µM; actives 0.94% (n = 290,000);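 active = 50% or more with normal probe brightness, or confirmed in later tests; about a fifth of its hits are not listed in these tables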;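 note: calls also rest on retests at 20 µM and on dose response follow-up; 0% = protein and probe with vehicle and 100% = probe without protein; strong numbers were not always called active; many hits fall short of the cut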
PABP FP inh – PABP poly(A) RNA binding inhibitors, primary screen, biochemical, fluorescence polarization, uHTS; Polyadenylate-binding protein 1 (Homo sapiens), P11940; inhibition, % at 35 µM; actives 1% (n = 290,000); AID 2014, 2009;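 active = 50% or more with normal probe brightness, or confirmed in later tests; about a fifth of its hits are not listed in these tables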;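 note: calls also rest on retests at 20 µM and on dose response follow-up; controls were probe without protein and protein plus probe with vehicle; some compounds called inactive have numbers as strong as hits; many hits fall short of the cut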
Target sequence (P11940 whole entry, looked up): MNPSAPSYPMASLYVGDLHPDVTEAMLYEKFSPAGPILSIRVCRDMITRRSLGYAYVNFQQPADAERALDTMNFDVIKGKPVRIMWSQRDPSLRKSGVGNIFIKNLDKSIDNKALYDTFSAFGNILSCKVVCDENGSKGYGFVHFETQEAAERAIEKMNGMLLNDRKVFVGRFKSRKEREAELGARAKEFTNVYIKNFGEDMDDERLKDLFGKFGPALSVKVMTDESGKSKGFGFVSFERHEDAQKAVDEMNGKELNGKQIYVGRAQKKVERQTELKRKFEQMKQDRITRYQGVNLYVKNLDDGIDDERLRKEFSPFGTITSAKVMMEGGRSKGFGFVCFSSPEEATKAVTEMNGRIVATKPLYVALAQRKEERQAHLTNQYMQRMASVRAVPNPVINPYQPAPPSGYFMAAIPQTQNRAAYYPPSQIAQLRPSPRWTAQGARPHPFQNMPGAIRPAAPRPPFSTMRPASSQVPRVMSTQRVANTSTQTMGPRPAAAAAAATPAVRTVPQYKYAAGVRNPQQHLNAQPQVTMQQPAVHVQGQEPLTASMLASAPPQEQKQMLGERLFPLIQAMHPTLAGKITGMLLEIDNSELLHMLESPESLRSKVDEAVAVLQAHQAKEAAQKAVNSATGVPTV
MT1-MMP act inh RFP – recorded beside MT1-MMP act inh, whose call it bears; RFP signal change, %; measured here: RFP expression control read;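 0 = vehicle wells; hits needed this value within 50% of zero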
Active calls of the source: *; i = inactive; / = not tested or not shown; & = joins results of further samples. These rows are one share of the data; the hit share may differ from the screen's.

Start of the data: the first 16 compounds (preview)
SMILES	Env fusion inh	Rce1 inh	Yeast UUG start	MT1-MMP act inh	MT1-MMP act inh RFP	CSC inhib	eIF4H inh	PABP FP inh
O=C(CCN1CCc2ccccc2C1)Nc1ccc(F)cc1	-67	i	-15	-5	2	-16	10	4
CCC(C)(C)c1ccc(OCCN2C(=O)NC(C)(C)C2=O)cc1	-3	i	3	4	0	-1	7	-5
COc1ccc(-c2noc(CCC(=O)N3CCN(Cc4ccccc4)CC3)n2)cc1	/	i	-1	1	-4	-2	-1	-12
COc1cc(NC(=O)c2ccc(C)cc2C)ccc1NC(=O)c1cc2ccccc2o1	33	i	-16	1	1	1	9	-6
Cc1ccccc1CSCC(=O)NC1CCCC1	/	i	-4	3	5	-9	3	0
Nc1c(-c2ccccc2)cnn1-c1ccccc1	-83	i	-33	-4	0	0	2	6
O=c1[nH]c2c(c(=O)[nH]1)CCC2	-9	i	1	1	2	-6	7	-2
CC(=O)Nc1ccc(Nc2nc(C)c([N+](=O)[O-])c(N(C)c3ccccc3)n2)cc1	6	i	/	5	-6	-8	-8	-6
CC(OC(=O)/C=C/c1ccccc1)C(=O)N1CCc2ccccc21 (centres undefined)	-20	i	-17	2	3	14	/	/
CCOc1ccc(N2C(=O)CSC2c2ccncc2)cc1 (centres undefined)	-27	i	-13	/	/	/	-7	13
CCc1cc(-c2n[nH]c(=S)n2CC)cs1	-66	i	-2	0	-1	-8	8	8
CC(C)c1ccc(NC(=O)CCNS(=O)(=O)c2ccc3[nH]c(=O)oc3c2)cc1	-3	i	-15	6	4	4	/	/
COc1ccc(OC)c2sc(N(CCCN(C)C)C(=O)CCS(=O)(=O)c3ccccc3)nc12	27	i	0	3	-4	57	/	/
Cc1ccc(NC(=S)N2CCC(C(N)=O)(N3CCCCC3)CC2)c(C)c1	17	i	-18	-3	-3	-2	-6	10
COc1ccccc1NS(=O)(=O)c1ccc2c(c1)CCN2C(=O)CCC(=O)O	-4	i	-9	1	-2	3	-6	2
Cc1c(Cl)cccc1S(=O)(=O)N1CCC(C(=O)NNC(=O)C2CC2)CC1	14	i	/	1	5	-2	-2	5

The whole of this part, repeating the preview:
SMILES	Env fusion inh	Rce1 inh	Yeast UUG start	MT1-MMP act inh	MT1-MMP act inh RFP	CSC inhib	eIF4H inh	PABP FP inh
O=C(CCN1CCc2ccccc2C1)Nc1ccc(F)cc1	-67	i	-15	-5	2	-16	10	4
CCC(C)(C)c1ccc(OCCN2C(=O)NC(C)(C)C2=O)cc1	-3	i	3	4	0	-1	7	-5
COc1ccc(-c2noc(CCC(=O)N3CCN(Cc4ccccc4)CC3)n2)cc1	/	i	-1	1	-4	-2	-1	-12
COc1cc(NC(=O)c2ccc(C)cc2C)ccc1NC(=O)c1cc2ccccc2o1	33	i	-16	1	1	1	9	-6
Cc1ccccc1CSCC(=O)NC1CCCC1	/	i	-4	3	5	-9	3	0
Nc1c(-c2ccccc2)cnn1-c1ccccc1	-83	i	-33	-4	0	0	2	6
O=c1[nH]c2c(c(=O)[nH]1)CCC2	-9	i	1	1	2	-6	7	-2
CC(=O)Nc1ccc(Nc2nc(C)c([N+](=O)[O-])c(N(C)c3ccccc3)n2)cc1	6	i	/	5	-6	-8	-8	-6
CC(OC(=O)/C=C/c1ccccc1)C(=O)N1CCc2ccccc21 (centres undefined)	-20	i	-17	2	3	14	/	/
CCOc1ccc(N2C(=O)CSC2c2ccncc2)cc1 (centres undefined)	-27	i	-13	/	/	/	-7	13
CCc1cc(-c2n[nH]c(=S)n2CC)cs1	-66	i	-2	0	-1	-8	8	8
CC(C)c1ccc(NC(=O)CCNS(=O)(=O)c2ccc3[nH]c(=O)oc3c2)cc1	-3	i	-15	6	4	4	/	/
COc1ccc(OC)c2sc(N(CCCN(C)C)C(=O)CCS(=O)(=O)c3ccccc3)nc12	27	i	0	3	-4	57	/	/
Cc1ccc(NC(=S)N2CCC(C(N)=O)(N3CCCCC3)CC2)c(C)c1	17	i	-18	-3	-3	-2	-6	10
COc1ccccc1NS(=O)(=O)c1ccc2c(c1)CCN2C(=O)CCC(=O)O	-4	i	-9	1	-2	3	-6	2
Cc1c(Cl)cccc1S(=O)(=O)N1CCC(C(=O)NNC(=O)C2CC2)CC1	14	i	/	1	5	-2	-2	5
CC1(C)C(=O)Nc2ccccc2N1C(=O)CSc1ncccn1	0	i	/	-1	2	-15	6	-14
CCCN1C(=O)c2ccccc2NC1c1ccc(Br)cc1 (centres undefined)	44	i	-1	/	/	-12	0	2
Cc1ccc(C(=O)NC(C)C(c2cccs2)N2CCCC2)s1 (centres undefined)	8	i	/	1	5	7	6	-7
CCCc1nc2n[nH]c(N)c2c2c1CCC2	/	i	-10	0	0	-1	1	4
CCC(C)Sc1ccc(-c2nc3ccccn3c2NCc2ccccc2)cc1OC (centres undefined)	/	/	-7	-2	-15	54	/	/
CC(=O)NCCc1nc2ccccc2[nH]1	-10	i	-7	2	0	-9	-1	-12
CCCCCC(=O)Nc1ccc2oc(-c3ccncc3)nc2c1	/	i	/	2	2	7	-2	0
COC(=O)Cc1c(O)ccn(Cc2ccc(Cl)c(Cl)c2)c1=O	12	i	/	0	0	/	2	4
O=C(Cn1cnc2c(nnn2Cc2ccccc2F)c1=O)N1CCN(c2ccccc2)CC1	/	i	12	5	-2	-12	-3	-12
COc1ccc(C(C(=O)NC(C)(C)C)N(C(=O)CNC(=O)c2cccs2)c2cccnc2)cc1OC (centres undefined)	-8	i	6	1	2	/	7	-4
CC1CCCCC1NC(=O)COC(=O)c1ccccn1 (centres undefined)	/	i	-11	-1	0	2	14	-10
COc1ccccc1CNC(=O)c1cccc(S(=O)(=O)N(C)c2ccccc2)c1	/	/	1	18	-5	11	/	/
Cc1ccc(OCCNC(=O)C2CC(=O)N(c3ccc(C)cc3)C2)cc1 (centres undefined)	/	i	-14	0	0	-2	4	5
CN(CCCCN1CCOCC1)Cc1nc(-c2ccc3c(c2)OCO3)no1	3	i	-24	3	5	5	-5	4
COCC(=O)Nc1c(C(=O)Nc2ccccc2OC)oc2ccccc12	-56	i	-12	11	3	4	4	-7
COc1ccc(CNc2nc(NCc3ccc(OC)cc3)n(S(C)(=O)=O)n2)cc1	/	i	-3	-4	0	-4	-2	-7
Cc1[nH]n(C)c(=O)c1N=Nc1ccc(S(C)(=O)=O)cc1	-49	i	-13	3	1	-3	-8	2
O=C(CN(Cc1ccccc1F)C(=O)c1ccco1)NCc1ccc(F)cc1	-15	i	-14	0	1	-4	3	-3
Cc1cc(NC(=O)CSc2nc3c(cc2C#N)CCC3)no1	-94	i	2	4	1	/	4	3
CCc1cc(=O)oc2cc(OC(C)C(=O)O)c(Cl)cc12 (centres undefined)	-2	i	-19	-1	0	-19	-8	-1
CCSc1oc(-c2ccco2)nc1S(=O)(=O)c1ccccc1	/	i	-14	-9	-4	/	-1	-6
C=CCn1c(CC#N)nnc1N1CCOCC1	/	i	/	4	4	18	-11	3
CCOc1ccccc1N(CC(=O)N1CCOCC1)S(=O)(=O)c1ccc(SC)cc1	/	i	-3	3	1	/	-11	8
O=C(Nc1ccc(SC(F)F)cc1)c1cccc2nc3ccccc3nc12	-3	i	-21	6	4	17	-2	0
Cc1cc(NC(=O)c2cccc(S(=O)(=O)N3c4ccccc4CC3C)c2)no1 (centres undefined)	3	i	-9	-8	-12	11	-16	0
Cc1onc(-c2ccccc2Cl)c1C(=O)NNC(=O)C1CCN(Cc2ccccc2)CC1	2	i	/	3	7	-6	4	-4
O=C(CN1CCOCC1)N1CCN(S(=O)(=O)c2ccccc2)C1c1ccccc1 (centres undefined)	-20	i	-21	3	3	-4	4	7
Cc1cc(C(=O)O[C@H]2[C@H](Cc3ccccc3)NS(=O)(=O)[C@H]3C[C@@H]4C=C[C@]23O4)ccc1[N+](=O)[O-]	-1	/	-1	1	2	0	/	/
CN1C(C(=O)Nc2ccccn2)=C(O)c2ccccc2S1(=O)=O	/	i	-11	2	4	-13	0&1	-2&7
COC(=O)[C@H]1[C@@H](C)N(Cc2ccccc2)C(=O)N[C@H]1c1ccccc1	-10	i	17	-1	1	6	/	/
CC(C)(C)S(=O)N1Cc2cc(C(=O)Nc3ccc(-c4ccccc4)cc3)nc(-c3cccc(-c4cc5ccccc5o4)c3)c2[C@@H]1CCO (some centres undefined)	5	/	-11	3	5	/	/	/
CCC(C)(O)c1[nH]c2ccc(C#N)cc2c1C (centres undefined)	-19	i	-17	4	0	-10	0	-2
COc1ccc(C2CCCCCN2C(=O)C2CCN(S(=O)(=O)c3ccc(C)cc3)CC2)cc1 (centres undefined)	22	/	-9	-1	0	/	/	/
CC(=O)OCc1cc2cc(C)ccc2[nH]c1=O	/	i	11	2	6	/	5	9
Cn1c(=N)n(CC(O)c2cccc3ccccc23)c2ccccc21 (centres undefined)	/	i	-8	-7	2	-6	-3	4
COC(C[C@@H](O)[C@@H](C)[C@H](O)COCc1ccccc1)OC	23	i	-12	-1	1	/	-16	-6
COC(CNC(=O)C(=O)Nc1ccc2c(c1)N(S(=O)(=O)c1cccs1)CCC2)OC	1	i	-10	0	-1	/	/	/
O=C(NCc1cccnc1)c1ccc(COc2ccccc2Cl)cc1	24	/	/	3	-18	8	-6	-8
CC/C(C)=C1/NC(=O)NC1=O	22	/	-25	4	7	/	/	/
N#Cc1ccsc1NC(=O)COC(=O)c1ccc(Br)o1	/	/	-6	2	1	-3	/	/
Cc1nc2ccc(NC(=O)c3ccco3)cc2s1	-23	i	/	3	3	2	-8	13
CCn1nnnc1SCC(=O)N(C1CCCCC1)C1CCCCC1	-103	i	-1	-5	-1	-9	-2	-6
O=C(NC(=S)Nn1cnnc1)c1ccccc1Cl	7	i	/	-2	4	/	-11	-3
O=C(COC(=O)c1cc(=O)[nH]c2ccccc12)Nc1ccc(Cl)c(S(=O)(=O)N2CCOCC2)c1	-10	/	-3	1	1	/	/	/
Later entries:
SMILES	Env fusion inh	Rce1 inh	Yeast UUG start	MT1-MMP act inh	MT1-MMP act inh RFP	CSC inhib	eIF4H inh	PABP FP inh
C=CCc1cccc2cc(C(=O)Nc3ccc(NC(C)=O)cc3)c(=O)oc12	-9	i	-26	0	4	0	8	-7
Fc1ccc(Br)cc1SCCc1ccncc1	-9	i	-18	-1	-11	-1	7	4
CC(Oc1ccc(C#N)cc1)C(=O)Nc1ccc(-n2cnnn2)cc1 (centres undefined)	-9	/	-6	-3	0	/	/	/
C=CCSc1nc2c(c(=O)n(C)c(=O)n2C)n1CC	/	i	2	-1	2	-12	-1	5
